D2 ag – agonists of human D2 dopamine receptor (beta-arrestin). 360,000 tested, 0.084% active. DiscoveRx PathHunter D2 beta-arrestin, luminescence, 90 min; 100% = 57 uM dopamine signal. activation, % (concentration not given with the values); in the data active = activation above about 40%; inconclusive = about 15% to 40%; inactive = below about 15%; further: compound concentration not given in the record; the text of the record calls up to 30% inactive
Target sequence (P14416 whole entry, looked up): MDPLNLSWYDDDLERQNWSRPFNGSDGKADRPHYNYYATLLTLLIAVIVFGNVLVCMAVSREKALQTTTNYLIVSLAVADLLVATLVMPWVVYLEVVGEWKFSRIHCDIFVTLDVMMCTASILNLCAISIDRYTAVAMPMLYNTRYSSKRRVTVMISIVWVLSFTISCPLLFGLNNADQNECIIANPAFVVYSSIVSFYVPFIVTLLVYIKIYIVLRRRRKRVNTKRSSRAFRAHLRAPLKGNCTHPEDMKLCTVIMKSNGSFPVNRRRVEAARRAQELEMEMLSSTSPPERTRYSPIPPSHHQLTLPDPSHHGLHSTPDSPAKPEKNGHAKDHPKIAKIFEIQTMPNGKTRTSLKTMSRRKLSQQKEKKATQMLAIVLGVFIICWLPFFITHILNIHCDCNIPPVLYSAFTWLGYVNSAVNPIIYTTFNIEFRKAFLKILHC
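DiscoveRx PathHunter D2 beta-arrestin cells (2,100/well) attached overnight, then compound-stimulated 90 min at 37 C in HBSS/10 mM HEPES/0.1% Tween-20 buffer; beta-galactosidase complementation read by luminescence after 1 h at ambient temperature. Dopamine 57 uM final (EC100) as control.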
Sfp inh – blocks B. subtilis Sfp PPTase activity. AID 1490. Potency, µM, for the others: max response, negative = inhibition, usual class: inhibitors. Biochemical Sfp PPTase activity, qHTS. 310,000 tested, 3.5% active. Q9F4F7; active means well fitted inhibition curve with a large enough effect; inconclusive means small, poorly fitted or top-dose-only effect, or another doubt; inactive means no such curve, though single readings can be large or run the other way;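 further: the enzyme is Sfp with the accession as filed and its product quenches rhodamine fluorescence; potency means the concentration at half of the fitted maximal effect; 0% = enzyme reaction without inhibitor and -100% = no enzyme wells; top concentration of the series not given in the record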
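With Hepes-Na pH 7.6 buffer containing 10 mM MgCl2, Sfp (15 nM) modified BHQ-2-YbbR (12.5 uM) using rhodamine-CoA (5 uM). Two reads 30 minutes apart at 525/598 nm yielded each well's rate.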
TRPV1 potentiator – human TRPV1 potentiation | Q8NER1 | TRPV1-expressing cells, Fluo-8 calcium influx, capsaicin EC20 potentiation; host cell line not named in the record; control for the full effect not named in the record | potentiation, % at 8.33 µM | 320,000 tested, 0.02% active | AID 540277; active means potentiation above 80%; inconclusive means 30% to 80%; inactive means below 30%; further: 0% is about no effect
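Cells expressing TRPV1 were dye-loaded with Fluo-8 and read kinetically: 10 s baseline, 3 min after compound (agonist portion), then 2 min after EC20 capsaicin (allosteric enhancer portion). Calcium-bound dye fluorescence at 480/520 nm.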
D2 PAM – positive allosteric modulators of human D2 dopamine receptor | P14416 | DiscoveRx D2 beta-arrestin cells, luminescence, 90 min; 100% = 57 uM dopamine signal | potentiation, % (test concentration not listed) | 360,000 tested, 0.23% active; active = potentiation of 50% or more; inconclusive = 30% to 50%; inactive = 30% or less;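 further: compound concentration not given in the record; tested on top of an EC20 dose of dopamine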
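PathHunter D2 cells, attached overnight at 37 deg C, received compound in DMSO plus dopamine at EC20 (50 nM final) for 90 min at 37 deg C. Beta-arrestin recruitment was read as luminescence after 1 h with detection reagent at ambient temperature.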
PINK1 modulator – modulators of PINK1 expression | PINK1 immunofluorescence, high-content cytometry, 24 h | Potency, µM (series often up to 76.6 µM), without a hit: top-dose activation (PINK1 increase), hits mostly activators | 410,000 tested, 0.2% active; active = well fitted activation curve with a large enough effect; inconclusive = small, poorly fitted or top-dose-only effect; inactive = flat fitted curve, though single readings scatter; cell line not stated here;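 further: potency means the concentration at half of the fitted maximal effect; % of control where 0% means no effect; nearly all actives have a fitted effect of over 65% in size; a mitochondrial uncoupler was the plate control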
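Readout is PINK1 immunofluorescence, quantified alongside mitochondrial, cell and nuclear markers by laser-scanning microplate cytometry. Cells from a stable line were exposed to compound titrations (5 concentrations) for 24 hours, with CCCP controls.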
Six1-Eya2 inh – inhibitors of human Six1/Eya2 interaction | activity change, % (test concentration not listed) | 360,000 tested, 0.56% active | AlphaScreen GST-Six1/His-Eya2 binding, biochemical; active compounds read low; control for the full effect not named in the record; in the data active = activity change below about -65%; inconclusive = about -30% to -65%; inactive = above about -30%; further: on the % scale 0 is the no-effect control and ±100 the full control effect
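AlphaScreen with GST-Six1 and His-Eya2 (5X mix: 250 nM and 500 nM), glutathione donor and nickel acceptor beads; buffer 50 mM Tris pH 8.0, 300 mM NaCl, 1 mM TCEP; 1 h at 37 C in the dark.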
CtBP-E1A blk – inhibitors of CtBP/E1A interaction | AlphaScreen GST-E1A/His-CtBP binding, 1536-well; active compounds read low; control for the full effect not named in the record | activity change, % (test concentration not listed) | 340,000 tested, 0.49% active; in the data active means activity change below about -65%; inconclusive means about -30% to -65%; inactive means above about -30%; further: on the % scale 0 is the no-effect control and ±100 the full control effect
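Homogeneous bead-based format: GST-tagged E1A captured on glutathione donor beads, His-tagged CtBP on nickel acceptor beads; compounds precede bead addition by 2 h at 37 °C.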
* marks the source's active call; other numbers are inactive results; [ ] = dose if it differs, or a comment.

How did CN(C)S(=O)(=O)N1CCC(Oc2cccc(C(=O)NC3CCCCCC3)c2)CC1 do in these assays?
D2 ag: -0.1; Sfp inh: 8%; TRPV1 potentiator: -37; D2 PAM: 8; PINK1 modulator: 2.5%; Six1-Eya2 inh: 0; CtBP-E1A blk: 1

What do the screens show for `CC(=O)Nc1ccc(C(=O)OC2CCCCC2=O)cc1` (centres undefined)?
D2 ag: 1.0; Sfp inh: 14%; TRPV1 potentiator: -9; D2 PAM: -7; PINK1 modulator: -0.3%; Six1-Eya2 inh: -12; CtBP-E1A blk: -5

Results for O=C(NCCCCCCOC1=NS(=O)(=O)c2ccccc21)C(=O)Nc1ccccc1 ?
D2 ag: -1.2; Sfp inh: 16%; TRPV1 potentiator: 22; D2 PAM: -4; PINK1 modulator: 3.6%; Six1-Eya2 inh: 5; CtBP-E1A blk: 1

Results for O=C(CSc1nc2nn(-c3ccccc3)c(=O)c-2c2n1CCCCC2)Nc1ccccc1[N+](=O)[O-] ?
D2 ag: -3.4; TRPV1 potentiator: -2; D2 PAM: 4; PINK1 modulator: 0.9%; Six1-Eya2 inh: inconclusive; CtBP-E1A blk: -24

How did CCNC(=S)N(CCCN(C)C)Cc1cc2cc3c(cc2[nH]c1=O)OCCO3 do in these assays?
D2 ag: 0.9; Sfp inh: 9%; TRPV1 potentiator: -11; D2 PAM: 1; PINK1 modulator: 1.9%; Six1-Eya2 inh: 4; CtBP-E1A blk: 2

What do the screens show for `O=C(COc1ccccc1C(=O)NCc1ccccn1)Nc1ccc(Br)cc1`?
D2 ag: 0.7; Sfp inh: 19%; TRPV1 potentiator: -12; D2 PAM: 12; PINK1 modulator: -0.3%; Six1-Eya2 inh: -8

Results for CS(=O)(=O)c1ccccc1-c1nnc(NC(=O)C2=COCCO2)o1 ?
D2 ag: -8.2; TRPV1 potentiator: 2; D2 PAM: -13; PINK1 modulator: -0.3%; Six1-Eya2 inh: -9; CtBP-E1A blk: -2

Results for COc1ccc(CC(=O)N2CC(C)CC(C)C2)cc1 (centres undefined) ?
D2 ag: -2.0; Sfp inh: -11%; TRPV1 potentiator: -16; D2 PAM: 2; Six1-Eya2 inh: 2; CtBP-E1A blk: 6

How did COc1ccc(/C=C2\SC(=S)N(CCC(=O)Nc3ccc(C(=O)O)cc3)C2=O)cc1 do in these assays?
D2 ag: -0.2; Sfp inh: -3%; TRPV1 potentiator: 21; D2 PAM: -1; PINK1 modulator: -0.2%; Six1-Eya2 inh: 1

What do the screens show for `CCC(=O)Nc1cccc(-n2nnnc2SCC(=O)c2ccc(C)c(C)c2)c1`?
D2 ag: 1.0; Sfp inh: -10%; TRPV1 potentiator: 15; D2 PAM: 0; PINK1 modulator: 2.4%; Six1-Eya2 inh: -2; CtBP-E1A blk: 2

Continued; the last 3 above are carried over.
Results for COc1ccc(CC(=O)N2CC(C)CC(C)C2)cc1 (centres undefined) ?
D2 ag: -2.0; Sfp inh: -11%; TRPV1 potentiator: -16; D2 PAM: 2; Six1-Eya2 inh: 2; CtBP-E1A blk: 6

How did COc1ccc(/C=C2\SC(=S)N(CCC(=O)Nc3ccc(C(=O)O)cc3)C2=O)cc1 do in these assays?
D2 ag: -0.2; Sfp inh: -3%; TRPV1 potentiator: 21; D2 PAM: -1; PINK1 modulator: -0.2%; Six1-Eya2 inh: 1

What do the screens show for `CCC(=O)Nc1cccc(-n2nnnc2SCC(=O)c2ccc(C)c(C)c2)c1`?
D2 ag: 1.0; Sfp inh: -10%; TRPV1 potentiator: 15; D2 PAM: 0; PINK1 modulator: 2.4%; Six1-Eya2 inh: -2; CtBP-E1A blk: 2

How did CC(C)(C)c1ccc(CC(=O)N2CCC2(C)C(=O)NS(=O)(=O)c2ccc(C#N)cc2)cc1 (centres undefined) do in these assays?
D2 ag: -0.6; D2 PAM: -3; PINK1 modulator: 1.6%; Six1-Eya2 inh: 10; CtBP-E1A blk: 8

How did O=C1NC(=O)C2(CCCC2)N1 do in these assays?
D2 ag: -1.6; D2 PAM: -4; PINK1 modulator: -0.2%; Six1-Eya2 inh: -4; CtBP-E1A blk: 3

Results for COc1ccc(S(=O)(=O)N2CCC(C(=O)Nc3ccccc3N3CCCC3)CC2)cc1OC ?
D2 ag: 4.6; Sfp inh: 8%; TRPV1 potentiator: -13; D2 PAM: 16; PINK1 modulator: -0.7%; Six1-Eya2 inh: 7; CtBP-E1A blk: 6

Results for O=S1(=O)CC(N2CC=CC2)CN1Cc1cn(Cc2ccccc2)nn1 (centres undefined) ?
PINK1 modulator: -0.1%; Six1-Eya2 inh: -4; CtBP-E1A blk: 6

Results for CC1=CC(C2CC(=O)N(c3ccccc3C)C2=O)CC2C(=O)N(c3ccccc3C)C(=O)C12 (centres undefined) ?
D2 ag: 1.4; Sfp inh: 7%; TRPV1 potentiator: -2; D2 PAM: -13; PINK1 modulator: -1.0%; Six1-Eya2 inh: 0; CtBP-E1A blk: 2

Results for COc1ccc(CNC(=S)NCc2ccc(OC(C)C)cc2)cc1 ?
D2 ag: -1.9; Sfp inh: -3%; TRPV1 potentiator: -17; D2 PAM: -6; PINK1 modulator: 1.5%; Six1-Eya2 inh: 0; CtBP-E1A blk: -28

Results for O=S1(=O)CCOC[C@H](Cc2ccccc2)N1Cc1ccccc1F ?
D2 ag: -1.7; D2 PAM: 5; PINK1 modulator: 1.2%; Six1-Eya2 inh: 4

What do the screens show for `CC(C)CC(=O)NC(c1ccccc1)c1c(O)ccc2ccccc12` (centres undefined)?
D2 ag: -2.6; Sfp inh: 1%; TRPV1 potentiator: 6; D2 PAM: 1; PINK1 modulator: -0.4%; Six1-Eya2 inh: -12; CtBP-E1A blk: -7

What do the screens show for `Cc1cccc(C(=O)NN2C(=O)C3C(c4ccccc4)C=CC(c4ccccc4)C3C2=O)c1` (centres undefined)?
D2 ag: -2.2; Sfp inh: 40%[activator]; TRPV1 potentiator: -5; D2 PAM: -14; PINK1 modulator: -1.7%; Six1-Eya2 inh: 1; CtBP-E1A blk: 0

What do the screens show for `CC(OC(=O)c1ccccc1CCc1ccccc1)C(N)=O` (centres undefined)?
D2 ag: -2.1; Sfp inh: -4%; TRPV1 potentiator: -4; D2 PAM: -6; PINK1 modulator: 0.7%; Six1-Eya2 inh: 10; CtBP-E1A blk: 0

What do the screens show for `O=C(Nc1nnc(C2CC2)s1)C1CC(=O)N(c2ccc3c(c2)OCCO3)C1` (centres undefined)?
D2 ag: -3.1; Sfp inh: 18%; TRPV1 potentiator: -12; D2 PAM: -6; PINK1 modulator: -1.4%; Six1-Eya2 inh: -10; CtBP-E1A blk: 0

How did CCOc1cc(C2C(C(=O)O)c3cc(OCC)c(OCC)cc3C(=O)N2C)ccc1O (centres undefined) do in these assays?
D2 ag: -1.9; Sfp inh: -1%; TRPV1 potentiator: 4; D2 PAM: -6; PINK1 modulator: -0.8%; Six1-Eya2 inh: 1; CtBP-E1A blk: -1

What do the screens show for `O=C(CCC1CCCN(C(=O)Cn2cnnn2)C1)NCc1ccc(F)c(F)c1` (centres undefined)?
D2 ag: -1.0; Sfp inh: 13%; TRPV1 potentiator: 7; D2 PAM: -5; PINK1 modulator: 2.2%; Six1-Eya2 inh: 0; CtBP-E1A blk: 0

How did CC(=O)Nc1ccc(NC(=O)CN2C(=O)NC3(CCCCCCC3)C2=O)cc1 do in these assays?
D2 ag: 0.0; D2 PAM: -9; PINK1 modulator: 4.0%; Six1-Eya2 inh: 0; CtBP-E1A blk: 7

What do the screens show for `Cc1nc(N2CCOCC2)c2c3c(sc2n1)CCC3`?
D2 ag: -5.5; Sfp inh: 15%; TRPV1 potentiator: -7; D2 PAM: -23; PINK1 modulator: -0.1%; Six1-Eya2 inh: -1; CtBP-E1A blk: -6

What do the screens show for `Cc1nc2ccc(NC(=O)c3ccc(N4C(=O)CCC4=O)cc3)cc2s1`?
D2 ag: -0.5; Sfp inh: 19%; TRPV1 potentiator: 6; D2 PAM: 1; PINK1 modulator: 0.7%; Six1-Eya2 inh: -7; CtBP-E1A blk: 11

What do the screens show for `COc1ccc(S(=O)(=O)N2CCOCC2)cc1NC(=O)COc1ccccc1`?
D2 ag: 0.8; TRPV1 potentiator: -4; D2 PAM: 4; PINK1 modulator: 1.0%; Six1-Eya2 inh: -11; CtBP-E1A blk: -2

How did O=c1c2ccccc2nc(/C=C/c2cc(Br)ccc2O)n1CCCO do in these assays?
D2 ag: 9.3; Sfp inh: 16%; TRPV1 potentiator: -11; D2 PAM: 1; PINK1 modulator: -0.3%; Six1-Eya2 inh: -8; CtBP-E1A blk: 0

Results for CCCCN(C(=O)NC(=O)Nc1c(C)cc(C)cc1C)S(C)(=O)=O ?
D2 ag: -3.6; Sfp inh: 1%; TRPV1 potentiator: 3; D2 PAM: -1; Six1-Eya2 inh: 1; CtBP-E1A blk: 9

How did Cc1cc(-c2nnnn2-c2ccc(F)cc2)no1 do in these assays?
D2 ag: 1.2; Sfp inh: 5%; D2 PAM: -8; PINK1 modulator: 1.0%; Six1-Eya2 inh: 3; CtBP-E1A blk: -12

What do the screens show for `O=C(O)c1cc(S(=O)(=O)N2CCOCC2)ccc1N1CCOCC1`?
D2 ag: -1.6; Sfp inh: 14%; TRPV1 potentiator: 2; D2 PAM: 8; PINK1 modulator: -0.9%; Six1-Eya2 inh: 6; CtBP-E1A blk: -3

What do the screens show for `Clc1ccc(CN2CCN(c3ccccc3)CC2)cn1`?
D2 ag: inconclusive; Sfp inh: 8%; TRPV1 potentiator: 0; D2 PAM: 11; PINK1 modulator: 1.2%; Six1-Eya2 inh: 1; CtBP-E1A blk: -1

Results for Cc1c2ccccc2c(C)c2c1ccc1ccccc12 ?
D2 ag: 12; TRPV1 potentiator: 7; D2 PAM: inconclusive; PINK1 modulator: 5.7%; Six1-Eya2 inh: 11; CtBP-E1A blk: 47

Results for O=C(COC(=O)/C=C/c1ccc(Cl)cc1)Nc1ccccc1 ?
D2 ag: -2.5; Sfp inh: 0%; TRPV1 potentiator: 23; D2 PAM: -7; PINK1 modulator: 0.5%; Six1-Eya2 inh: 8; CtBP-E1A blk: -8

Results for CCc1ccccc1NC(=O)CC1S/C(=N\c2nccs2)N(CC)C1=O (centres undefined) ?
D2 ag: -2.3; Sfp inh: -1%; TRPV1 potentiator: 28; D2 PAM: -3; PINK1 modulator: inconclusive; Six1-Eya2 inh: 2; CtBP-E1A blk: -9

Results for Cc1ccc(/C=N/n2nnnc2N)cc1[N+](=O)[O-] ?
D2 ag: 0.6; Sfp inh: -12%; TRPV1 potentiator: 19; D2 PAM: -10; PINK1 modulator: -3.1%; Six1-Eya2 inh: 3; CtBP-E1A blk: -4
